NPYLR7 ag: agonists of mosquito NPYLR7 receptor, primary screen, cell-based, Aedes aegypti, calcium fluorescence, mosquito biting behavior; Aedes aegypti neuropeptide Y-like receptor 7 (NPYLR7); HEK293T NPYLR7/Galpha15, GCaMP6s calcium fluorescence; activation, % at 10 µM; 270,000 compounds, 0.15% hits; AID 1259423, 2018; in the data active = activation above about 40%;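 note: 0% = vehicle and 100% = reference agonist at the receptor; some compounds past the cut are filed as inactive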
NPYLR7 ag max-min: second read-out of NPYLR7 ag, no call of its own (marks repeat the call); activation, %; measured here: Max-Min RFU normalised activation; some inactives read as strong as hits;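 span of the calcium signal over five minutes; 0% = vehicle and 100% = native peptide agonist; compound fluorescence can raise it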
The depositor's hits bear a star; & = joins results of further samples.

Results follow in this order: NPYLR7 ag max-min	NPYLR7 ag
COCCCN(CC(=O)N(Cc1cccn1Cc1ccccc1Cl)CC(C)C)C(=O)c1ccco1
→ 9	-4
O=S(=O)(c1ccccc1F)N1CCC(CCc2ccc3c(c2)OCO3)CC1
→ 3	4
CC(C(=O)Nc1nccs1)N1CCN(Cc2ccccc2)CC1 (stereo unspecified)
→ 1	5
c1ccc(Oc2ccc(Nc3cccc(-c4ccccc4)n3)cc2)cc1
→ -12	-7
COc1cc(-c2oc3cc(O)ccc3c(=O)c2O)ccc1O
→ 13	29
Cc1cc(/C=N\Nc2nc(N3CCOCC3)nc(N3CCOCC3)n2)c(C)n1-c1ccccc1
→ -7	0
CC(C)Nc1ncccc1C(=O)N[C@H](CO)Cc1ccccc1
→ -8	-1
N#C/C(=C\c1ccccc1F)c1nc(N)nc(Nc2ccccc2)n1
→ 3	3
O=C(C1CC1)N1CCC(Cn2cc(-c3ccccn3)nn2)CC1
→ 6	18
CNC(=O)CC(C)N(C)C(=O)c1cc(Cl)c(C)c(Cl)c1 (stereo unspecified)
→ -14	-11
Cc1oc2nc[nH]c(=O)c2c1C(=O)Nc1ccc(C(C)(C)C)cc1
→ 7	7
COC(=O)c1ccc(CSc2ncc(CO)n2CC(=O)NC2CC2)cc1
→ 0	4
CN(C)[C@@H]1C[C@@H](CO)N(Cc2ccc(-c3ccccc3Cl)o2)C1
→ -2	1
Cc1ccc(O)c(CN(Cc2ccccc2)Cc2nccs2)n1
→ 2	2
COC(=O)Nc1ncc(CN2CCCC2)s1
→ -5	-1
CN1C[C@H](NC(=O)c2cccc(-n3cnnc3)c2)C[C@H]1CO
→ -2	-1
O=C(CCN1C(=O)c2ccccc2C1=O)Nc1ccc(F)c(Cl)c1
→ -12	-4
S=c1[nH]nc(Cn2cncn2)n1-c1cc(Cl)cc(Cl)c1
→ -11	-8
C=CCCC(=O)N(CCC)Cc1ccsc1
→ 11	14
CNC(=O)c1ccc(CNCc2ccc(SC)c(OC)c2)cc1
→ 2	8
COc1ccccc1-n1cc(CN2CCC3(CC2)NCCNC3=O)cn1
→ 3	8
COc1ccccc1CNC(=O)CNCc1cc(F)ccc1F
→ 8	4
COC(=O)C1=C(C)N(C)C(=S)NC1c1ccc(NC(=O)Nc2ccc(C(F)(F)F)cc2)cc1 (stereo unspecified)
→ 13	16
CCCc1nc(CS(=O)CC(=O)NCc2cccs2)cs1 (stereo unspecified)
→ 3	7
COC(=O)C1CCN(Cc2cc(=O)oc3cc(-c4ccccc4)c(O)cc23)CC1
→ -2	2
CC(=O)NC1CCN(c2ccccc2C(=O)N2CCCC2)CC1
→ 0	0
CCc1cnc2c(c1OC)c(=O)n(CC#N)c(=O)n2C
→ -3	-1
O=S(=O)(Nc1ccccc1Br)c1ccc(Br)s1
→ 0	1
Cc1ccc(NC(=O)CSc2nc(=O)n(CCCN(C)C)c3c2CCC3)c(C)c1
→ -5	0
COc1ccc(CCNC(=O)c2ccccc2N2CCC(NC(=O)/C=C/c3ccccc3)CC2)cc1OC
→ 0	0
C/C(C=C1SC(=S)N(NC(=O)Cc2ccccc2)C1=O)=C/c1ccccc1
→ 6	16
Cc1nc2c3ccccc3nn2c(C)c1CCC(=O)NC(C)C1CC1 (stereo unspecified)
→ 11	3
CN1CCN(C(=O)CC2C=CCC2)C2(CCCCC2)C1 (stereo unspecified)
→ 0	2
Cc1cc(C)nc(NC(=O)NS(=O)(=O)Nc2ccccc2Cl)n1
→ 0	2
Cc1ccc(NC(=O)c2ccc(-n3nc(-c4cccc(Cl)c4)cc3N)cc2)cc1
→ -6	-3
COCC(C)Nc1nc(-c2ccc(F)c(F)c2)c(C)s1 (stereo unspecified)
→ -1	0
Cc1ccccc1NC(=O)CCNC(=O)[C@H](N)c1ccccc1
→ -14	-10
CC1=C[C@@H](CN(C)Cc2cccnc2)[C@H](C(C)C)C[C@H]1Cc1nnc(Cc2c[nH]c3ccccc23)o1
→ -7	-3
CCNC(=O)N(C)c1c(CC)nc2c(OCCn3cccc3)cccn12
→ -1	1
CCOC(=O)c1ccc(N2CCn3nc(C(=O)OC)cc3C2)nc1
→ 19	25

Some of the entries so far, as tab-separated lines:
Molecule	NPYLR7 ag max-min	NPYLR7 ag
CN1C[C@H](NC(=O)c2cccc(-n3cnnc3)c2)C[C@H]1CO	-2	-1
O=C(CCN1C(=O)c2ccccc2C1=O)Nc1ccc(F)c(Cl)c1	-12	-4
S=c1[nH]nc(Cn2cncn2)n1-c1cc(Cl)cc(Cl)c1	-11	-8
C=CCCC(=O)N(CCC)Cc1ccsc1	11	14
CNC(=O)c1ccc(CNCc2ccc(SC)c(OC)c2)cc1	2	8
COc1ccccc1-n1cc(CN2CCC3(CC2)NCCNC3=O)cn1	3	8
COc1ccccc1CNC(=O)CNCc1cc(F)ccc1F	8	4
COC(=O)C1=C(C)N(C)C(=S)NC1c1ccc(NC(=O)Nc2ccc(C(F)(F)F)cc2)cc1 (stereo unspecified)	13	16
CCCc1nc(CS(=O)CC(=O)NCc2cccs2)cs1 (stereo unspecified)	3	7
COC(=O)C1CCN(Cc2cc(=O)oc3cc(-c4ccccc4)c(O)cc23)CC1	-2	2
CC(=O)NC1CCN(c2ccccc2C(=O)N2CCCC2)CC1	0	0
CCc1cnc2c(c1OC)c(=O)n(CC#N)c(=O)n2C	-3	-1
O=S(=O)(Nc1ccccc1Br)c1ccc(Br)s1	0	1
Cc1ccc(NC(=O)CSc2nc(=O)n(CCCN(C)C)c3c2CCC3)c(C)c1	-5	0
COc1ccc(CCNC(=O)c2ccccc2N2CCC(NC(=O)/C=C/c3ccccc3)CC2)cc1OC	0	0
C/C(C=C1SC(=S)N(NC(=O)Cc2ccccc2)C1=O)=C/c1ccccc1	6	16
Cc1nc2c3ccccc3nn2c(C)c1CCC(=O)NC(C)C1CC1 (stereo unspecified)	11	3
CN1CCN(C(=O)CC2C=CCC2)C2(CCCCC2)C1 (stereo unspecified)	0	2
Cc1cc(C)nc(NC(=O)NS(=O)(=O)Nc2ccccc2Cl)n1	0	2
Cc1ccc(NC(=O)c2ccc(-n3nc(-c4cccc(Cl)c4)cc3N)cc2)cc1	-6	-3
COCC(C)Nc1nc(-c2ccc(F)c(F)c2)c(C)s1 (stereo unspecified)	-1	0
Cc1ccccc1NC(=O)CCNC(=O)[C@H](N)c1ccccc1	-14	-10
CC1=C[C@@H](CN(C)Cc2cccnc2)[C@H](C(C)C)C[C@H]1Cc1nnc(Cc2c[nH]c3ccccc23)o1	-7	-3
CCNC(=O)N(C)c1c(CC)nc2c(OCCn3cccc3)cccn12	-1	1
CCOC(=O)c1ccc(N2CCn3nc(C(=O)OC)cc3C2)nc1	19	25

(listing goes on)
Results follow in this order: NPYLR7 ag max-min	NPYLR7 ag
CCOC(=O)N1CCN(S(=O)(=O)c2ccc(Br)s2)CC1
→ 7	2
CCS(=O)(=O)c1cccc(NC(=O)C2CCn3ccnc3C2)c1 (stereo unspecified)
→ -2&-4	0&-3
CCCCn1c(N)c(N(Cc2ccco2)C(=O)C=Cc2ccco2)c(=O)[nH]c1=O
→ 1	3
CC1CC(C)CN(S(=O)(=O)N(C)C(C)c2ccccc2)C1 (stereo unspecified)
→ 1	3
Cc1cc(C)c2c3c(c(-c4ccccc4)n2n1)c(=O)n(C)c(=O)n3C
→ -2	3
COC(=O)CN(C(=O)C1CC1c1ccccc1Cl)C1CCOCC1 (stereo unspecified)
→ -5	-1
COc1ccc(C(N)=O)cc1-c1cnc2ccccc2c1
→ 4	5
O=c1ccc(-c2ccc3ccccc3c2)nn1Cc1cccnc1
→ 1	8
Cc1ccccc1Cn1cccc1CN(CCC(C)C)CC(O)COc1ccccc1C (stereo unspecified)
→ 27	25
NC(=O)c1nc(-c2ccccc2F)nc2c1[nH]c(=O)n2-c1ccc2c(c1)OCO2
→ 13	27
CC(C)Cc1cc(CNC(=O)C2CCC(=O)N(Cc3ccccn3)C2)on1 (stereo unspecified)
→ -9	-7
CN(Cc1ccc(Cl)cc1Cl)C(=O)c1ccc2c(c1)CCN2S(C)(=O)=O
→ 5	0
N#Cc1c(NC(=O)CCSc2ccc(S(=O)(=O)N3CCCCC3)cn2)sc2c1CCCC2
→ 13	-7
Cc1ccn2c(NC(=O)C3CCCCC3)c(-c3ccc(Cl)cc3)nc2c1
→ 2	-4
CC1(C(=O)Nc2ccc3c(c2)OCO3)CCN1C(=O)Cc1cccc2ccccc12 (stereo unspecified)
→ -7	-4
CCN1CCN(c2nc3c(c(=O)[nH]c(=O)n3C)n2Cc2ccc(C)cc2)CC1
→ 2	8
O=S1(=O)N(c2ccccc2)C[C@H](O)[C@]12CCN(C1Cc3ccccc3C1)C2
→ 4	-1
C=CCNC(=O)c1cccc(I)c1
→ -2	-1
CN(C(=O)c1cnn2c1NC(c1ccc3c(c1)OCO3)CC2C(F)(F)F)C1CCCCC1 (stereo unspecified)
→ -12	-9
COc1ccc(-n2c(CCC(=O)NCCc3cccs3)ccc2-c2ccc(Cl)cc2)cc1
→ 1	-3
O=C(O)c1cc(=O)c2ccc(Cl)cc2[nH]1
→ -20&-14	0&-8
CNC(=O)c1cc(OC)ccc1NC(=O)c1cccc(C)c1C
→ 7	9
COc1ccc(C2SC(C)C(=O)N2CC(=O)Nc2ccc(C)cc2)cc1OC (stereo unspecified)
→ 21	8
Cc1cc(C)cc(N(C)S(=O)(=O)c2cc(C)c(C(=O)O)s2)c1
→ -4	-2
CC(=O)NC1(C(F)(F)F)C(=O)Nc2c1c(=O)[nH]c(=O)n2Cc1ccncc1 (stereo unspecified)
→ -5	-2
COC(=O)C(SCC(=O)Nc1ccccc1)(c1c(C)[nH]n(-c2ccccc2)c1=O)C(F)(F)F (stereo unspecified)
→ -1	1
Nc1nc(Sc2nc(CN3CCCCC3)nc3sc4c(c23)CCCC4)n[nH]1
→ -5	-1
CCOC(=O)c1c(NC(=O)Cn2nc(C)c([N+](=O)[O-])c2C)sc2c1CCC(C(C)(C)C)C2 (stereo unspecified)
→ -4	-1
Cc1noc(CN(CCO)C2CCCCC2)n1
→ -8	-6
CNC(=O)CSc1nc2ccccc2c(=O)n1-c1cccc(Cl)c1
→ -2&-8	0&-6
O=C(CC1S/C(=N/N=C\c2ccccc2)NC1=O)Nc1cccc(Cl)c1Cl (stereo unspecified)
→ 5	6
CCCc1nc(N2CCN(C(=O)c3ccccc3Cl)CC2)c2c(-c3ccccc3)noc2n1
→ 6	16
Cc1ccc(-n2c(SCc3nc(C(=O)NCc4ccncc4)cs3)nnc2-c2ccncc2)cc1
→ -2	-2
CC(C)c1nnc(NC(=O)c2ccc(S(=O)(=O)N3CCCC3)cc2)s1
→ -11	-5
CCCCc1ccc(N2C(=NC(=O)CCCC(=O)O)SC3CS(=O)(=O)CC32)cc1 (stereo unspecified)
→ -16	-11
O=C(Nc1cccc(NC(=O)C(F)(F)F)n1)C(F)(F)F
→ -2	-1
O=C(Nc1nnc(Cc2cccc(F)c2)s1)N1CCCC1
→ 2	5
Cc1cccc(NC(=O)CC2S/C(=N/N=C\c3ccco3)NC2=O)c1C (stereo unspecified)
→ 3	2
Cc1c(C(=O)NCC2CCOC2)nnn1-c1ccc(F)c(Cl)c1 (stereo unspecified)
→ -21	-19
COc1cccc(C(=O)N2CCC(C(=O)NC3CCCC[C@H]3NC(=O)c3ccccc3C)CC2)c1 (stereo partly specified)
→ 13	5
Cc1ccc(C(O)=C2C(=O)C(=O)N(CCN3CCOCC3)C2c2ccccc2F)cc1 (stereo unspecified)
→ 14	9
CCC(=O)N1CCc2cc(OC)c(OC)cc2C1c1cccc(Cl)c1 (stereo unspecified)
→ 4	12
COc1cc(OC)cc(C(=O)N2CCN(C(C(=O)NCC3CCCO3)C3CCCC3)CC2)c1 (stereo unspecified)
→ -9	-5
COc1ccccc1OCC(=O)Nc1cc(C)nn1-c1ncnc2c1cnn2-c1cccc(C)c1C
→ 8	8
c1ccc(-c2ccc(CN3CCCn4cncc4C3)cc2)nc1
→ 1	3
CC(C)Cn1nc(C(=O)NC2CCCC2)c2c1CCN(C(=O)[C@@H]1C[C@@H](C)NC(=S)N1)C2
→ -7	-2
COC(C(=O)Nc1ccnn1C1CCN(C(=O)c2cnn(C(C)C)c2)CC1)c1ccccc1 (stereo unspecified)
→ -4	-1
CCOC(=O)c1ccc(NC(=O)Nc2nc(C(=O)OCC)cs2)cc1
→ -6	-2
C/C(=N/NC(=O)CSc1nc2ccccc2s1)c1cccnc1
→ 4	1
COc1ccc(CN(C)CC=C(C)C)cc1
→ 5	18
CCCCN(C(=O)C(CC)CC)c1c(N)n(CCC)c(=O)[nH]c1=O
→ 7	1
Cn1cc(C(=O)N2CCN(Cc3ccc4c(c3)OCO4)CC2)c2ccccc21
→ 0	1
Cc1cccc(NC(=O)CN2C(=O)c3ccccc3C2=O)c1
→ -10	-4

Two records drawn at random from those above:
Results follow in this order: NPYLR7 ag max-min	NPYLR7 ag
COc1ccccc1OCC(=O)Nc1cc(C)nn1-c1ncnc2c1cnn2-c1cccc(C)c1C
→ 8	8
COC(C(=O)Nc1ccnn1C1CCN(C(=O)c2cnn(C(C)C)c2)CC1)c1ccccc1 (stereo unspecified)
→ -4	-1

High-throughput results: PubChem, Fisher Drug Discovery Resource Center

These rows are one share of the data; rates above refer to the full screens.
